Screening data (PubChem BioAssay)
D2 ag: agonists of human D2 dopamine receptor (beta-arrestin); activation, % (concentration not given with the values); actives 0.084% (n = 360,000); AID 624465; DiscoveRx PathHunter D2 beta-arrestin, luminescence, 90 min; 100% = 57 uM dopamine signal; in the data active = activation above about 40%; inconclusive = about 15% to 40%; inactive = below about 15%; note: compound concentration not given in the record; the text of the record calls up to 30% inactive
Target sequence (P14416 whole entry, looked up): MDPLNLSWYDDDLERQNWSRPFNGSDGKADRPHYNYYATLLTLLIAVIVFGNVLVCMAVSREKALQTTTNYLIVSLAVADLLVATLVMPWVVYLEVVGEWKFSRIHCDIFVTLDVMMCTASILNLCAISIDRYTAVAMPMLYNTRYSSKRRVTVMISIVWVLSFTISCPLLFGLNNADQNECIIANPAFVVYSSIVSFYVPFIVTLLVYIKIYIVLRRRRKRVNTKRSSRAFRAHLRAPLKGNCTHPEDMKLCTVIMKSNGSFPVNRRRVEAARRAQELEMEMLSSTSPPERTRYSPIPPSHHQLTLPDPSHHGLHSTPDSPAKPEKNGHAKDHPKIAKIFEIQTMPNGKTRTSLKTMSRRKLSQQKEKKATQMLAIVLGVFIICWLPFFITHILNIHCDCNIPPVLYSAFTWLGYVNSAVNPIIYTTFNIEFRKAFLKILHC
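DiscoveRx PathHunter D2 beta-arrestin cells (2,100/well) attached overnight, then compound-stimulated 90 min at 37 C in HBSS/10 mM HEPES/0.1% Tween-20 buffer; beta-galactosidase complementation read by luminescence after 1 h at ambient temperature. Dopamine 57 uM final (EC100) as control.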
TRPML1 inh: human mucolipin-1 channel inhibition; Q9GZU1; TRPML1-inducible cells, Ca2+ dye fluorescence, FDSS; hits give low values; inhibition of EC80 agonist-evoked calcium signal; activity change, negative = inhibition, % (concentration not given with the values); actives 0.02% (n = 390,000); in the data active means activity change below about -50%; inconclusive means about -30% to -50%; inactive means above about -30%;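 note: stimulus is agonist 54-4 at its EC80 concentration; % is set by controls: 0 for no effect and ±100 for the full control effect; compound concentration not given in the record; the text of the record puts the active cut at -80%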
Target sequence (Q9GZU1 whole entry, looked up): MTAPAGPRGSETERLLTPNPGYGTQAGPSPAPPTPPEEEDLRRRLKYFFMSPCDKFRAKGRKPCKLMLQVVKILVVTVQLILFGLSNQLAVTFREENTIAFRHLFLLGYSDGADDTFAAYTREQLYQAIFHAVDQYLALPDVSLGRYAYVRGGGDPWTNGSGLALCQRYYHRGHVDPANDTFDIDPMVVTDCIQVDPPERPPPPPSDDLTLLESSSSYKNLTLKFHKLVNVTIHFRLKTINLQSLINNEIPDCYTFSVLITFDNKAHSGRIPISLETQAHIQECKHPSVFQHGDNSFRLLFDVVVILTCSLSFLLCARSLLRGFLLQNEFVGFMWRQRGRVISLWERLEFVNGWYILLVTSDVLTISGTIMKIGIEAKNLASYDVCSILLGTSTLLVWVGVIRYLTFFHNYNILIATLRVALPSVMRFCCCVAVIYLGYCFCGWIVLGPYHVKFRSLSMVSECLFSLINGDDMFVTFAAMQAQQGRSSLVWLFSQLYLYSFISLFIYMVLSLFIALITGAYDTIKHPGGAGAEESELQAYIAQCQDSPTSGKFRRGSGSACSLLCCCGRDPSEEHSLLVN
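Calcium fluorescence in TRPML1-DL cells induced overnight with Tet: a 110 s read after compound pin addition, then a 110 s antagonist read after challenge with 54-4 at 4 uM final (EC80).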
Six1-Eya2 inh: Six1/Eya2 interaction inhibition; activity change, % (concentration not given with the values); actives 0.56% (n = 360,000); AlphaScreen GST-Six1/His-Eya2 binding, biochemical; hits give low values; control for the full effect not named in the record; in the data active = activity change below about -65%; inconclusive = about -30% to -65%; inactive = above about -30%; note: % is set by controls: 0 for no effect and ±100 for the full control effect
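AlphaScreen luminescence read after one hour at 37 °C in darkness. Pin-transferred compounds met GST-Six1 and His-Eya2 protein (5X stock 250 nM/500 nM) plus glutathione donor and Ni-chelate acceptor beads (5X, 50 ug/mL).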
PINK1 expr mod: PINK1 expression modulation; Potency, µM (titrated, usually from 76.6 µM), for the others: at the highest dose activation (PINK1 increase), usual class: activators; PINK1 immunofluorescence, high-content cytometry, 24 h; actives 0.2% (n = 410,000); AID 624263; active = well fitted activation curve with a large enough effect; inconclusive = small, poorly fitted or top-dose-only effect; inactive = flat fitted curve, though single readings scatter; cell line not stated here;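 note: potency is the fitted concentration of half-maximal effect; % of control where 0% means no effect; nearly all actives have a fitted effect of over 65% in size; a mitochondrial uncoupler was the plate control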
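Readout is PINK1 immunofluorescence, quantified alongside mitochondrial, cell and nuclear markers by laser-scanning microplate cytometry. Cells from a stable line were exposed to compound titrations (5 concentrations) for 24 hours, with CCCP controls.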
TRPML1 agonist: human mucolipin-1 channel agonism. TRPML1-expressing cells, Ca2+ dye fluorescence, FDSS; host cell line not named in the record; reference of the full effect not given here. actives 0.12% (n = 410,000). activation, % (no concentration beside the values). Q9GZU1; in the data active = activation above about 50%; inconclusive = about 30% to 50%; inactive = below about 30%; note: 0% is about no effect; the text of the record puts the active cut at 80%
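Tet-induced TRPML1-DL cells, 1,500 per well, cultured overnight, were loaded with a no-wash Ca2+ dye for 45–90 min. Calcium fluorescence was recorded on the FDSS for 110 s after compound addition, before the EC80 agonist (4 uM 54-4) was added.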
CtBP-E1A blk: CtBP/E1A binding inhibition; AlphaScreen GST-E1A/His-CtBP binding, 1536-well; hits give low values; control for the full effect not named in the record; activity change, % (no concentration beside the values); actives 0.49% (n = 340,000); in the data active means activity change below about -65%; inconclusive means about -30% to -65%; inactive means above about -30%; note: % is set by controls: 0 for no effect and ±100 for the full control effect; compound concentration not given in the record
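GST-E1A and His-tagged CtBP (125 nM each as 5X stock) were preincubated with pin-transferred compound for 2 h at 37 °C in the dark, then glutathione donor and nickel acceptor beads were added for 1 h before AlphaScreen reading.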
Numbers without * were called inactive; u = inconclusive; x = no result given; [ ] = dose if it differs, or a comment.

SMILES	D2 ag	TRPML1 inh	Six1-Eya2 inh	PINK1 expr mod	TRPML1 agonist	CtBP-E1A blk
COc1ccc(NC(=O)C(C)N2CCN(C)CC2)cc1 (configuration not stated)	-1.6	8.0	13.0	3.7%	-0.4	5.1
COc1ccc(CCNC(=O)Cn2c(=O)c3cccn3c3cccnc32)c(OC)c1OC	-5.8	-6.8	0.0	17.9%	0.3	x
O=C(Nc1ccc(F)c(F)c1)C1=COCCO1	3.6	-2.8	16.9	1.8%	0.4	-0.1
CC(=O)C[C@@H](O)CC(=O)[C@H]1OC(=O)CCCCCc2ccccc21	-0.2	8.6	6.6	-0.3%	-0.6	2.1
C=CCNC(=O)/C(C#N)=C/c1c(N2CCN(c3cccc(Cl)c3)CC2)nc2c(C)cccn2c1=O	-4.4	0.9	-11.8	5.0%	-0.6	1.6
CN1C(CC(=O)Nc2ccc(Cl)cc2Cl)c2ccccc2CC1(C)C (configuration not stated)	-2.6	26.7	4.6	27.1%	0.4	2.5
COc1ccc(NC(=O)CC(c2ccc(F)cc2)c2ccc(OC)cc2)cc1 (configuration not stated)	-1.5	8.2	6.7	9.9%	1.7	0.7
c1ccc(-c2nn3cnnc3c3ccccc23)cc1	-0.6	-5.3	-1.2	-0.3%	3.3	3.6
Cc1c(C(=O)N(Cc2ccc(N(C)C)cc2)Cc2ccco2)oc2cc(Br)ccc12	x	-2.2	x	0.9%	0.1	x
Cc1nnnn1-c1ccc(CC(=O)O)cc1	-5.8	-11.6	5.1	0.4%	0.6	-4.8
Cn1c(SCC(=O)N2CC(=O)Nc3ccccc32)nc2ccccc2c1=O	4.8	7.6	u	2.0%	2.1	u
CCOc1ccc(NC(=O)C2CC(=O)N(c3ccc4c(c3)OCCO4)C2)cc1OCC (configuration not stated)	-3.4	-0.8	-15.4	0.1%	-1.2	0.1
O=C1CSC(c2cccc([N+](=O)[O-])c2)N1c1c(F)cccc1F (configuration not stated)	-4.0	4.8	-5.7	7.1%	-1.4	0.2
CCOC(=O)C1=C(CNCc2ccccc2)NC(=O)NC1c1ccc(C)cc1 (configuration not stated)	x	18.7	x	-0.2%	-0.5	x
Cc1ccc2[nH]c3c(NCCN4CCOCC4)ncnc3c2c1	-5.8	-6.9	23.4	1.2%	-0.5	3.1
CCc1nc(N2CCOCC2)c(C#N)c2c1COC(C)(C)C2	1.6	0.1	1.5	1.1%	0.4	3.7
C=CCN(CC=C)S(=O)(=O)c1ccc2nc(NC(=O)C3CCCO3)sc2c1 (configuration not stated)	-0.2	-5.0	4.8	1.5%	0.9	-0.7
Cc1ccc(C)c(N(CC(=O)NC2CCCC2)C(=O)CNC(=O)c2cccs2)c1	-2.8	2.4	-1.3	2.6%	0.1	3.9
CC(C)c1cc(NC(=O)c2ccccc2)cc(C(C)C)c1O	10.0	-16.5	-3.6	8.8%	2.2	-0.2
CC1(C)SC(=S)N(NC(=O)Nc2ccccc2)C1N(O)C(=O)Nc1cccc2ccccc12 (configuration not stated)	7.2	-14.1	-15.0	u	0.3	x
CN(C(=O)CSc1nnc(NCc2ccccc2)s1)C1CCS(=O)(=O)C1 (configuration not stated)	-2.7	23.9	-1.1	0.2%	0.7	-0.6
Cc1ccc(-c2csc3ncn(CC#N)c(=O)c23)cc1	1.6	11.4	-4.3	0.9%	2.9	-3.4
Cc1nc(N)c(S(=O)(=O)c2ccccc2)c(Nc2ccc(Br)cc2)n1	x	4.6	x	-0.7%	1.1	x
C/C(=N\NC(=S)NC1CCCCC1)c1cccs1	-8.4	10.1	u	1.3%	-0.8	-0.8
O=C(Nc1ccccc1N1CCCC1)C1CC(=O)N(Cc2ccccc2)C1 (configuration not stated)	-0.5	3.9	2.8	3.2%	0.5	-24.0

18 structures already listed, arranged by length of the SMILES, low to high.
SMILES	D2 ag	TRPML1 inh	Six1-Eya2 inh	PINK1 expr mod	TRPML1 agonist	CtBP-E1A blk
Cc1nnnn1-c1ccc(CC(=O)O)cc1	-5.8	-11.6	5.1	0.4%	0.6	-4.8
O=C(Nc1ccc(F)c(F)c1)C1=COCCO1	3.6	-2.8	16.9	1.8%	0.4	-0.1
C/C(=N\NC(=S)NC1CCCCC1)c1cccs1	-8.4	10.1	u	1.3%	-0.8	-0.8
COc1ccc(NC(=O)C(C)N2CCN(C)CC2)cc1 (configuration not stated)	-1.6	8.0	13.0	3.7%	-0.4	5.1
Cc1ccc(-c2csc3ncn(CC#N)c(=O)c23)cc1	1.6	11.4	-4.3	0.9%	2.9	-3.4
Cc1ccc2[nH]c3c(NCCN4CCOCC4)ncnc3c2c1	-5.8	-6.9	23.4	1.2%	-0.5	3.1
CCc1nc(N2CCOCC2)c(C#N)c2c1COC(C)(C)C2	1.6	0.1	1.5	1.1%	0.4	3.7
CN1C(CC(=O)Nc2ccc(Cl)cc2Cl)c2ccccc2CC1(C)C (configuration not stated)	-2.6	26.7	4.6	27.1%	0.4	2.5
O=C(Nc1ccccc1N1CCCC1)C1CC(=O)N(Cc2ccccc2)C1 (configuration not stated)	-0.5	3.9	2.8	3.2%	0.5	-24.0
Cn1c(SCC(=O)N2CC(=O)Nc3ccccc32)nc2ccccc2c1=O	4.8	7.6	u	2.0%	2.1	u
O=C1CSC(c2cccc([N+](=O)[O-])c2)N1c1c(F)cccc1F (configuration not stated)	-4.0	4.8	-5.7	7.1%	-1.4	0.2
Cc1nc(N)c(S(=O)(=O)c2ccccc2)c(Nc2ccc(Br)cc2)n1	x	4.6	x	-0.7%	1.1	x
C=CCN(CC=C)S(=O)(=O)c1ccc2nc(NC(=O)C3CCCO3)sc2c1 (configuration not stated)	-0.2	-5.0	4.8	1.5%	0.9	-0.7
COc1ccc(CCNC(=O)Cn2c(=O)c3cccn3c3cccnc32)c(OC)c1OC	-5.8	-6.8	0.0	17.9%	0.3	x
CCOc1ccc(NC(=O)C2CC(=O)N(c3ccc4c(c3)OCCO4)C2)cc1OCC (configuration not stated)	-3.4	-0.8	-15.4	0.1%	-1.2	0.1
Cc1c(C(=O)N(Cc2ccc(N(C)C)cc2)Cc2ccco2)oc2cc(Br)ccc12	x	-2.2	x	0.9%	0.1	x
CC1(C)SC(=S)N(NC(=O)Nc2ccccc2)C1N(O)C(=O)Nc1cccc2ccccc12 (configuration not stated)	7.2	-14.1	-15.0	u	0.3	x
C=CCNC(=O)/C(C#N)=C/c1c(N2CCN(c3cccc(Cl)c3)CC2)nc2c(C)cccn2c1=O	-4.4	0.9	-11.8	5.0%	-0.6	1.6

Three compounds out of the list above, sorted by the value under TRPML1 inh, low to high:
SMILES | TRPML1 inh
C=CCN(CC=C)S(=O)(=O)c1ccc2nc(NC(=O)C3CCCO3)sc2c1 (configuration not stated) | -5.0
CCOc1ccc(NC(=O)C2CC(=O)N(c3ccc4c(c3)OCCO4)C2)cc1OCC (configuration not stated) | -0.8
COc1ccc(NC(=O)C(C)N2CCN(C)CC2)cc1 (configuration not stated) | 8.0

Going on with the list.
SMILES	D2 ag	TRPML1 inh	Six1-Eya2 inh	PINK1 expr mod	TRPML1 agonist	CtBP-E1A blk
Cc1ccc(C(=O)NC(Cc2cccc(C(F)(F)F)c2)C(=O)O)cc1 (configuration not stated)	-0.9	-5.4	5.7	-0.4%	-0.1	3.1
Cc1cc(C)cc(NC(=O)CS(=O)(=O)c2ccccc2)c1	-3.9	-13.0	0.4	2.0%	1.2	2.4
CCOC(=O)C1CCN(C(=O)Cn2nc(C)n3nc(-c4ccc(OC)cc4)cc3c2=O)CC1	0.1	23.8	-4.4	0.2%	0.1	x
COc1cc(/C=C/C(=O)N(Cc2ccccc2)c2ccccn2)cc(OC)c1OC	-2.6	25.1	4.9	2.9%	2.0	0.4
Cc1ccc(S(=O)(=O)Nc2nc(CN3CCOCC3)nc3sc(C(=O)O)c(C)c23)cc1	-4.1	6.2	-12.5	-0.3%	-0.9	1.0
COc1cccc(-c2onc3ccc(C4(C)OCCO4)cc23)c1	u	17.2	12.8	-1.0%	2.6	10.2
NC(=O)CSc1ncc2c(n1)-c1ccccc1N(Cc1ccc(Cl)cc1)S2(=O)=O	x	8.7	x	0.2%	0.5	x
CCOC(=O)c1c(C)[nH]c(C)c1S(=O)(=O)N(C)CC(=O)Nc1ccc(C)cc1Br	x	-16.4	x	0.4%	-0.7	x
Cc1ccc(-n2c(C)cc(/C=N/Nc3ccc([N+](=O)[O-])cn3)c2C)c(C)c1	-0.4	-7.6	u	2.2%	0.7	-28.4
COc1ccc(N2CC(C(=O)Nc3nnc(SCC(=O)NCC4CCCO4)s3)CC2=O)cc1 (configuration not stated)	-2.2	71.7	-10.6	-0.1%	-0.3	-0.2
CN(C)S(=O)(=O)c1cccc(COC(=O)CN2CCCCCC2=O)c1	5.4	-7.3	5.6	-1.3%	0.1	3.3
COc1ccc(Cl)cc1NC(=O)Cn1nnc(C(=O)NCc2cccs2)c1N	x	0.5	x	4.3%	-0.5	x
CCc1c(C)sc2c1CCN(Cc1cccc(F)c1)C2c1ccccc1 (configuration not stated)	x	-1.4	x	-0.6%	0.2	x
COc1ccc(CCNC(=O)C2CCN(S(=O)(=O)c3ccc(OC)c(OC)c3)CC2)cc1	5.4	-17.3	2.9	x	0.4	6.2
Cc1ccc(S(=O)(=O)N/N=C/c2cccn2-c2ccc(Cl)cc2)cc1	-3.4	4.7	-14.4	-1.2%	1.8	-7.4
O=C1CN(C(=O)COC(=O)c2ccco2)c2ccccc2N1	-1.3	-20.9	0.0	-0.9%	1.3	-2.5
c1ccc2cc(N3CCCCC3)ccc2c1	4.5	11.7	0.3	1.6%	0.7	16.2
COc1nc2ccc(C)cc2cc1-c1noc(-c2cccnc2)n1	-2.5	5.4	-8.3	u	1.2	2.8
O=C(Cn1c(=O)c2cccn2c2ccccc21)NCc1cccc(F)c1	0.9	-15.1	-0.8	9.1%	-0.2	-1.7
O=c1[nH]c(=O)n([C@H]2C[C@H](O)[C@@H](CO)O2)cc1C(F)(F)F	12.1	-2.9	-1.5	-0.6%	-0.4	-0.7
COc1ccc(Nc2ncc3c(n2)CC(c2ccc(C)cc2)CC3=O)cc1 (configuration not stated)	0.9	39.2	4.5	-0.4%[38.3 µM]	0.8	-0.4
Cc1c(C(=O)O)oc2c1C(=O)CC(C)(C)C2	2.6	3.0	-2.1	-3.1%	0.2	1.2
CC1(C)CC(=O)C2=C(C1)OC(N)=C([N+](=O)[O-])C2c1ccc(F)cc1 (configuration not stated)	-4.1	-14.4	2.2	0.5%	-0.6	4.7
CSCCC(NC(=O)c1ccccc1Cl)C(=O)N(C)CC(=O)Nc1ccc(N2CCOCC2)cc1 (configuration not stated)	-3.0	11.1	2.6	-0.2%	-0.4	-0.4
Cc1ccc(S(=O)(=O)NC(C)CCc2ccccc2)cc1 (configuration not stated)	-3.4	20.1	10.8	-1.2%	1.2	11.6
O=C(NC1CC2CCC1C2)C1CCN(S(=O)(=O)c2ccc(-c3nn[nH]n3)cc2)CC1 (configuration not stated)	-1.3	15.8	-0.7	4.7%	0.0	3.2
Cc1ccc(Cl)c(NC(=O)CSc2cccc[n+]2[O-])c1Cl	-0.3	-1.6	3.8	-1.4%	-0.5	0.3

Rows are unselected. About 1% of those tested had a hit in this group.
